# MLL AF4-AF9 inh: inhibitors of human MLL-AF4/AF9 interaction; 0.47% of 350,000 active; P42568; inhibition, % at 10 µM; AID 651704; AlphaScreen, biotin-AF4 peptide binding to FLAG-AF9;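 active = every replicate reaching a set inhibition limit, whatever the replicate mean, cut at about 25% in these data; inconclusive = mean inhibition reaches that limit but some replicates miss it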;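 note: 0% = plate neutral control median and 100% = total signal loss; the record names both 10 and 1 µM as test concentration; the first replicate is given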
# Target sequence (P42568 whole entry, looked up): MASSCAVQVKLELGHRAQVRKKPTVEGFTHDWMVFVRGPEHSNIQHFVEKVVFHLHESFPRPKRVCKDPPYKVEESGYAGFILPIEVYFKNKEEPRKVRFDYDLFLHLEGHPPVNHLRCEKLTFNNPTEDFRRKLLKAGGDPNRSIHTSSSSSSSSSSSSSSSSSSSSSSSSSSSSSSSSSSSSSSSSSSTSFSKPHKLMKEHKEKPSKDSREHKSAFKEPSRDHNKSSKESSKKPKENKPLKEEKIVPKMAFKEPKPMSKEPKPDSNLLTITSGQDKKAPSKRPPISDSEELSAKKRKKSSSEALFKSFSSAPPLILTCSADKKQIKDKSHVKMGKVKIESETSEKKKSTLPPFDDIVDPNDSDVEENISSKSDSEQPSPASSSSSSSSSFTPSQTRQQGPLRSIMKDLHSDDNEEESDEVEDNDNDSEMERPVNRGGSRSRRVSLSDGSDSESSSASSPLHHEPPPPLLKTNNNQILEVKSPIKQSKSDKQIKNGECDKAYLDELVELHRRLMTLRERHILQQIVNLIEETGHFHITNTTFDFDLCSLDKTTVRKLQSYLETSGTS
# Calb FLC: affects C. albicans growth with fluconazole; C. albicans CaCi-2 (fluconazole-resistant clinical isolate) + fluconazole, Alamar Blue growth, 48 h; growth inhibition, % (test concentration not listed); 0.57% of 300,000 active; AID 1979;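 active = most replicates above 75%; inconclusive = exactly half above 75%; inactive = most below 75%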;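 note: all wells also contain fluconazole at 8 µg/ml as a sub-toxic cotreatment; 0% = median of DMSO wells and 100% = median of geldanamycin control wells; wells of about 8 µL received 7.5 nL stock; the first replicate is given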
# RanGTP-Impb inh: disruptors of Ran-importin-beta complex formation – biochemical, FRET, CFP-Ran, YFP-importin-beta, homogeneous, primary screen. cell-free CFP-Ran/YFP-importin-beta FRET ratio. inhibition, % (no concentration beside the values). 1.1% of 300,000 active. AID 2216;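 active = most replicates above 15%; inconclusive = exactly half above 15%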;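 note: 0% = DMSO wells and 100% = Ran loaded with GDP instead of GTP; wells of about 40 µL received 100 nL stock; the first replicate is given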
# T cruzi repl: T. cruzi replication inhibition | T. cruzi beta-gal in NIH3T3, luminescence, 90 h | inhibition, % (no concentration beside the values) | 1.4% of 300,000 active | AID 1885;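 active = mean inhibition across valid replicates above about 55%, limit read from the data; inconclusive = mean below that limit but half or more replicates reach it; inactive = mean below it, under half of replicates reach it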;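 note: signal also drops with host cell toxicity which is not excluded here; 0% = plate median of DMSO wells and 100% = zero luminescence signal; higher percent means less beta-gal luminescence so fewer parasites; stock transfer was 50 nL into about 50 µL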
# LANA-H2B inh: blocks KSHV LANA binding to histone H2A/H2B. cell-free LANA-H2A/H2B peptide, fluorescence polarization. inhibition, % (test concentration not listed). AID 2629. 0.6% of 320,000 active. Q9QR71; in the data active = inhibition mostly above about 10%, no sharp cut-off; inactive = mostly below about 6.7%;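 note: stock transfer was 7.5 nL into about 10 µL; 0% = median of vehicle wells and 100% = median of positive control wells; one replicate is shown; the record names a cut of 25% in any replicate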
# Beta apoptosis: blocks beta cell apoptosis; INS-1E cytokine-induced death, ATP luminescence, 48 h; percent of positive-control rescue, neutral wells zero; AID 435005; protection from apoptosis, % (concentration not given with the values); 0.8% of 300,000 active;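 active = all replicates at 75% or more, or half of them and the mean; inconclusive = half reach 75% but not the mean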;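 note: 0% = cytokine-treated negative control wells and 100% = positive control rescue; higher means more ATP so stronger rescue from cytokine killing; wells of about 40 µL received 100 nL stock; the first replicate is given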
# A1 inh: inhibitors of the anti-apoptotic protein A1, read as caspase activation | MEF A1-2A-BIM cells, Caspase-Glo 3/7 luminescence, 3 h; percent of clofoctol response, vehicle zero | caspase activation, % (test concentration not listed) | 0.066% of 330,000 active;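 active = over half of replicate activation scores above 10%, or exactly half above 10 with the replicate mean above 10; inconclusive = replicate mean below 10 yet half the replicates above 10; inactive = over half of replicates below 10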;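 note: wells of about 30 µL received 50 nL stock; many hits fall short of the cut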
# Vif A3G: inhibitors of Vif binding to APOBEC3G peptide, primary screen, biochemical, TR-FRET, GST-Vif 1-94, biotin-A3G peptide, dose response retest (AID 1117319); 0.57% of 260,000 active; inhibition, %; hits with a dose series show IC50 in µM; TR-FRET GST-Vif / biotin-A3G peptide binding; higher % means a stronger effect; test concentration not given here; strong numbers were not always called active;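 active = above the screen mean plus three standard deviations and confirmed in dose response; inconclusive = results disagree or hit not tested in dose response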;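 note: Vif residues 1-94 fused to GST binding biotinylated APOBEC3G peptide 110-148; 0% = full assay without inhibitor and 100% = GST in place of GST-Vif; retest series ran down from 100 µM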
# Active calls of the source: *; u = inconclusive; x = no result given; & = joins results of further samples.
# The line under a structure holds: MLL AF4-AF9 inh	Calb FLC	RanGTP-Impb inh	T cruzi repl	LANA-H2B inh	Beta apoptosis	A1 inh	Vif A3G
Cc1ccc(NC(=O)COC(=O)C2CC(=O)N(Cc3ccccc3)C2)cc1S(=O)(=O)N(C)C (stereo not given)
  -0.5	-11	5.5	-12	0.0	-4	0.3	-7%
O=C1C=CC(=O)N1Cc1ccccc1
  48*	x	1.6	-5	3.8	-13	-0.8	x
CS(=O)(=O)N(CCc1ccccc1)CC(=O)NCC1CCCO1 (stereo not given)
  x	4	1.0	-11	-1.2	-2	-0.5	-14%
CC(NC(=O)CCNC(=O)c1ccccc1Cl)c1ccc(-n2ccnc2)cc1 (stereo not given)
  -5.4	15	-0.6	-2	-2.8	1	0.1	-3%
COc1ccc(S(=O)(=O)NC(C)C(=O)NCc2ccco2)cc1OC (stereo not given)
  1.1	3	-6.9	-6	-2.1	0	0.4	x
O=C(NCC1CCCO1)c1ccccc1OCc1ccc(F)cc1 (stereo not given)
  -1.9	0	0.2	-1	-1.7	x	-0.3	-3%
Cc1cccc(C2=NOC(=O)/C2=C\c2ccccc2F)c1
  -1.4	x	x	x	-1.8	-4	0.7	x
COc1cc(C(=O)NNC(=O)CN2C(=O)NC3(CCCC3)C2=O)cc(OC)c1OC
  -0.9	x	x	x	-1.7	0	-0.1	-3%
CN(CCC#N)C(=O)c1ccc(CNS(=O)(=O)c2ccc(F)cc2)cc1
  x	8	3.7	1	-1.4	-3	-0.5	2%
Cn1c(N)c(C(=O)COC(=O)CCc2ccccc2)c(=O)n(C)c1=O
  0.6	26	3.2	-14	-12	5	0.5	2%
CC(C)(C)OC(=O)N1CCC(C(=O)NNC(=O)c2ccc(Cl)cc2Cl)CC1
  0.3	3	0.8	1	-8.3	-2	0.1	x
CCNc1cc(S(=O)(=O)C(F)(F)F)ccc1N
  x	-6	-1.2	-15	-0.6	0	-1.5	11%
Cc1ccc(CSc2nccc(-c3c(C)nc4ccccn34)n2)cc1
  -0.3	-12	0.2	-18	0.2	8	0.2	-4%
COc1cc(NC(=O)c2cc([N+](=O)[O-])ccc2Br)ccc1NC(=O)c1ccco1
  x	-7	3.9	1	1.4	18	0.4	x
O=c1[nH]c(C2CCN(S(=O)(=O)c3ccccc3F)CC2)nc2c1nnn2Cc1ccc(OC(F)(F)F)cc1
  -4.9	-1	1.0	18	x	x	x	x
COc1ccc(C2c3c(oc4ccccc4c3=O)C(=O)N2CCCN2CCOCC2)cc1 (stereo not given)
  x	-4	u	-46	0.0	-7	0.8	x
CCOc1cc(/C=C2/C(=O)ON=C2C)ccc1OCc1ccc(F)cc1
  x	2	-1.5	-3	-30	-5	1.9	3%
CC1(C)C=Cc2c(ccc3c2OC[C@@H](c2ccc(O)cc2O)C3)O1
  15	-1	-0.5	7	-3.6	5	0.7	x
CCc1ccc(NC(=O)Cn2nnc(C(=O)NCCc3ccc(OC)c(OC)c3)c2N)cc1
  -5.9	-1	2.5	2	-3.3	x	0.0	4%
COc1ccc2c(c1)CC(C(=O)Nc1ccc(Cl)cc1)/C(=N/O)O2 (stereo not given)
  -2.5	-2	2.3	-7	-1.1	-1	-0.3	1%
CCOc1ccccc1N1CCN(CC(=O)Nc2nc(C)c(C(=O)N(C)C)s2)CC1
  -1.6	0	2.7	-10	7.5	-2	-0.6	x
O=C(Nc1nnc(SCc2ccc(F)cc2)s1)c1cccnc1Cl
  -1.2	1	3.6	5	6.3	-5	-0.6	-9%
Cc1cc(C)n2cc(CSc3nnnn3-c3ccccc3)nc2n1
  x	4	u	-9	0.6	4	0.4	-1%
Cc1nc2ccc(NC(=S)NC3CC3)cc2nc1C
  2.8	-8	-0.1	-4	6.4	-1	0.3	x
O=C(CNC(=S)N(Cc1ccc(F)cc1)C1CCCCC1)NCC1CCCO1 (stereo not given)
  -0.2	43	-1.7	3	0.2	2	0.3	-6%
O=C(CSc1ccccc1)N1CCN(c2ccccn2)CC1
  -0.4	16	0.1	4	-4.1	2	0.1	3%
COc1ccccc1CNC(=O)C1=C(C)C(=O)OC12CCC(C)CC2 (stereo not given)
  -3.2	-6	-1.5	-12	-2.1	-1	0.0	3%
Cc1ccc(Cl)cc1NC(=O)CCCN1C(=O)c2cccnc2C1=O
  -1.4	4	2.0	3	1.2	2	-0.4	x
CCOCCCn1c(=N)c(C(=O)NCCN2CCOCC2)cc2c(=O)n3cccc(C)c3nc21
  x	x	x	x	-4.2	4	-0.1	24%
CC(=O)Nc1sc(N/N=C/c2ccc(N(C)C)cc2)nc1-c1ccc(C)cc1
  -1.4	-5	u	7	x	x	x	9%

# (cont.)
# The line under a structure holds: MLL AF4-AF9 inh	Calb FLC	RanGTP-Impb inh	T cruzi repl	LANA-H2B inh	Beta apoptosis	A1 inh	Vif A3G
O=C(CN1C(=O)C2C3C=CC(C3)C2C1=O)NCc1ccco1 (stereo not given)
  x	3	3.4	-9	6.2	2	-0.3	x
Cc1cccn2c(=O)c(/C=C(\C#N)C(=O)NCc3ccccc3)c(N3CCC(C(N)=O)CC3)nc12
  -1.6	-18	2.7	-6	-10	-1	1.4	14%
O=C1c2ccccc2NC(c2ccc(-c3cccc([N+](=O)[O-])c3)o2)N1O (stereo not given)
  18	2	0.5	-11	6.5	19	-0.1	x
COc1ccccc1C1C(C(=O)c2cc3ccccc3o2)=C(O)C(=O)N1CCN1CCOCC1 (stereo not given)
  x	-1	1.1	-4	3.8	-6	0.1	7%
O=C(Nc1ccc(F)cc1F)c1cccn1-c1ncc(C(F)(F)F)cc1Cl
  -2.0	-5	-1.2	11	-2.1	5	0.5	15%
CSCC[C@H](NC(=O)C1CCN(S(=O)(=O)c2ccc(C)cc2)CC1)C(=O)NC1CCS(=O)(=O)C1 (stereo not given in full)
  x	11	-2.8	6	-3.8	-3	0.6	7%
Cc1ccc2[nH]c3c(N4CCc5ccccc5C4)ncnc3c2c1
  x	60	1.7	8	-9.4	101*	0.5	-5%
COc1ccc(CNC(=O)Nc2ccc(C)cc2)cc1
  x	-6	2.6	-11	-9.4	1	-0.6	3%
O=C(COC(=O)c1cnccn1)NC1CCCc2ccccc21 (stereo not given)
  -0.2	x	x	x	-2.6	-2	0.3	x
COc1cccc(NC(=S)NC(C)c2ccc(OC)c(OC)c2)c1 (stereo not given)
  0.3	-10	5.9	x	-0.7	-5	-0.2	-8%
Clc1ccc(/C=N/N2CCN(Cc3ccccc3)CC2)cc1
  4.5	1	1.7	11	-0.7	0	-0.2	-2%
COc1ccc(CN(C)CC(=O)Nc2ccccc2-c2ccccc2)c(OC)c1
  2.4	-5	3.9	27	x	-9	2.1	4%
S=C(NCC1CCCO1)Nc1ccc(Cl)cc1 (stereo not given)
  -0.3	-3	-3.8	-6	-0.3	9	0.3	-6%
COc1ccc(C(=O)c2c(C)c(CCC#N)n3ccccc23)c(OC)c1
  4.8	8	-1.5	8	4.4	-7	0.6	-7%
CCCCCCCCC(=O)N/N=C(\C)c1ccco1
  4.6	8	5.1	-8	2.3	-1	-0.3	-5%
Cc1ccc(CN(C)C(=O)c2cccc(S(=O)(=O)N3CCCC3)c2)cc1
  0.0	x	x	x	-0.3	0	-0.4	-9%
O=C1/C(=C\c2cccc(O)c2O)SC(=S)N1Cc1ccccc1
  12	3	1.3	31	0.4	-2	-0.2	x
COc1ccccc1N/C(=N/S(=O)(=O)c1ccc(C)cc1)c1ccccc1
  -4.0	-1	4.7	5	5.2	5	-0.3	-1%
COc1cc(OC)cc(C(C(=O)NCc2ccccc2)N(Cc2ccco2)C(=O)c2ccno2)c1 (stereo not given)
  x	17	0.6	-11	-5.4	0	0.9	0%
COc1cc(NC(=O)C(C)N2CCN(C(=O)C3CC3)CC2)cc(OC)c1 (stereo not given)
  -3.3	x	x	x	-1.6	-3	-0.1	-9%
N#CCC1c2ccccc2CCN1C(=O)Nc1ccc(Cl)cc1 (stereo not given)
  x	3	3.9	6	-7.3	-8	0.5	u
N#Cc1nc(COc2ccccc2Cl)oc1NCc1cccnc1
  x	42	-0.8	11	6.8	-6	0.0	0%
C(=N\n1cnnc1)/c1ccc(OCc2cccc3ccccc23)cc1
  x	19	-0.1	-5	-7.7	-3	1.3	-1%
Cc1cc(-c2cccs2)c2c(n1)sc1c(=O)[nH]c(=O)[nH]c12
  x	1	-3.6	16	-0.6	2	0.3	-1%
COc1ccccc1OCCC(=O)OCC(=O)Nc1cc(S(=O)(=O)N2CCOCC2)ccc1Cl
  -1.4	14	1.1	1	1.2	-7	-0.4	x
CCSc1nnc(NC(=O)C(Cc2ccccc2)n2cccc2)s1 (stereo not given)
  0.8	-15	2.3	-4	-5.4	-7	0.2	-4%
COc1cccc2cc(C(=O)C3=C(O)C(=O)N(CCN4CCOCC4)C3c3ccc(Cl)cc3)oc12 (stereo not given)
  -4.5	-5	-0.5	-1	-2.3	-12	0.5	2%
N#Cc1c2n(c(=S)n(-c3ccccn3)c1=O)CCCCC2
  x	-1	3.1	-14	-4.5	-2	0.0	3%
COC(=O)C(C)Oc1ccc2cc(-c3ccccc3)c(=O)oc2c1 (stereo not given)
  -1.9	2	u	-5	-1.4	-2	0.4	x
Clc1ncccc1OCc1ccccc1
  -2.8	1	-3.3	-13	-4.0	-1	-3.5	x

# Additional structures:
# The line under a structure holds: MLL AF4-AF9 inh	Calb FLC	RanGTP-Impb inh	T cruzi repl	LANA-H2B inh	Beta apoptosis	A1 inh	Vif A3G
Cc1cn(C(=O)CN2C(=O)c3ccccc3C2=O)c(C)n1
  x	1	4.3	-8	x	x	x	u
COC(=O)c1cc(-c2cccc([N+](=O)[O-])c2)c2c(=O)[nH]c(=O)n(C)c2n1
  0.5	-2	-4.0	8	-2.8	1	-0.8	5%
Cc1occc1-c1nnc(SCc2nnc(-c3ccc(Cl)cc3)o2)n1C
  x	6	7.7	-15	3.2	-5	-2.6	-1%
O=C(C1=C[C@H](c2csc3ccccc23)C[C@H](OCc2ccc(CO)cc2)O1)N1CCOCC1
  -1.8&1.5	-2	2.8	12	-0.6	0	1.7	-2%
Cc1c(Br)cc(C(=O)O)c(C)c1C
  x	5	-0.2	-5	8.8	-5	0.2	u
CCn1c(SCC(=O)c2cccs2)nnc1-c1cccs1
  x	1	-1.9	-2	-6.8	2	-0.6	10%
COc1ccc(Cn2c(=O)[nH]c3cc(C(=O)NC4CCN(Cc5ccccc5)CC4)ccc32)cc1
  8.4	13	2.1	-6	-3.9	2	0.4	6%
CC1CCc2nn(CC(=O)NCCCN3CCCC3=O)cc2C1 (stereo not given)
  2.7	-5	2.7	-7	0.9	-3	4.5	3%
Cc1ccc(S(=O)(=O)N(Cc2n[nH]c(=S)n2-c2ccccc2)c2ccccc2)cc1
  -8.4	-2	-1.1	49	-0.1	-8	0.9	1%
CCc1nc2cccnc2n1-c1ccc(C(=O)O)cc1
  -2.8	1	1.4	9	2.5	-1	1.1	10%
Cc1nc(SCC(=O)Nc2cccc(C(=O)O)c2)n[nH]1
  -2.1	-3	0.3	-4	-0.6	-5	-0.5	x
Cc1cc(C)nc(N/N=C/c2ccccc2)n1
  -76	-2	2.0	-2	2.5	-4	-1.2	0%
